# TRPML1 ag: agonists of human TRPML1 channel; TRPML1-expressing cells, Ca2+ dye fluorescence, FDSS; host cell line not named in the record; reference of the full effect not given here; 0.12% of 410,000 active; Q9GZU1; activation, % (test concentration not listed); AID 624414; in the data active = activation above about 50%; inconclusive = about 30% to 50%; inactive = below about 30%; also: 0% is about no effect; the text of the record puts the active cut at 80%
# Target sequence (Q9GZU1 whole entry, looked up): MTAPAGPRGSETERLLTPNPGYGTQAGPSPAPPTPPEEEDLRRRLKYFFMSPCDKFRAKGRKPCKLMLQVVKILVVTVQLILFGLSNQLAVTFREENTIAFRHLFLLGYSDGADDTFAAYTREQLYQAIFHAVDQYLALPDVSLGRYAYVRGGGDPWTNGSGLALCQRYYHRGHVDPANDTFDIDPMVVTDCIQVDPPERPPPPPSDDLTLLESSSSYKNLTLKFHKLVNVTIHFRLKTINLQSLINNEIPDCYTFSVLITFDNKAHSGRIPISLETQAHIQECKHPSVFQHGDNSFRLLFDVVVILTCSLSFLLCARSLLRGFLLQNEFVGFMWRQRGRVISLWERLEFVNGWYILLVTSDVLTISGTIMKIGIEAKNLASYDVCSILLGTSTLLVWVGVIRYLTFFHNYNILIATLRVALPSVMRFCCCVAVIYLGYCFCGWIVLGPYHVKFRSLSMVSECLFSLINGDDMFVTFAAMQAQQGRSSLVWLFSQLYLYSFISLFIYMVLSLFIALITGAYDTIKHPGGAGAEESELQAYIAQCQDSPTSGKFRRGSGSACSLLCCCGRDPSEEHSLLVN
#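 Agonist activity was taken from a 110 s kinetic Ca2+ dye read on the FDSS after pinning compounds onto TRPML1-DL cells. The cells were seeded at 1,500/well with Tet inducer, incubated about 16 h, then dye-loaded at room temperature.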
# gsp antag: antagonizes gsp, the McCune-Albright syndrome mutation. AID 624288. 0.4% of 340,000 active. gsp-mutant cells, cAMP HTRF, 30 min; control for the full effect not named in the record. Potency, µM (highest dose often 76.9 µM), without a hit: at the top dose activity change, negative = inhibition, usual class: inhibitors; active = falling curve of any shape with a large fitted effect; inconclusive = falling curve, mostly with a smaller effect; inactive = flat or rising curve; cell line not stated here;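 also: intracellular cAMP measured with PDE inhibitor Ro 20-1724 present during compound exposure; potency is read from the fitted curve at half-maximal effect; % is scaled to controls: 0 for no effect and ±100 for the full control effect; nearly all actives have a fitted effect of over 65% in size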
#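 Cells, 2000/well, grown 16–24 h in DMEM 10% FBS with 0.5 mg/ml G418, then compounds plus […] (300 uM addition stock), 30 min at 37C. cAMP read by HTRF (cAMP-d2 and anti-cAMP antibody-K in lysis buffer) after 30 min RT.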
# TRPML1 inh: inhibitors of human TRPML1 channel. 0.02% of 390,000 active. TRPML1-inducible cells, Ca2+ dye fluorescence, FDSS; stronger effect = lower value; inhibition of EC80 agonist-evoked calcium signal. AID 624415. Q9GZU1. activity change, negative = inhibition, % (no concentration beside the values); in the data active means activity change below about -50%; inconclusive means about -30% to -50%; inactive means above about -30%;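 also: stimulus is agonist 54-4 at its EC80 concentration; % is scaled to controls: 0 for no effect and ±100 for the full control effect; compound concentration not given in the record; the text of the record puts the active cut at -80%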
#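 Calcium fluorescence in TRPML1-DL cells induced overnight with Tet: a 110 s read after compound pin addition, then a 110 s antagonist read after challenge with 54-4 at 4 uM final (EC80).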
# ClpP mod: qHTS Assay for Activators of ClpP; ATP-dependent Clp protease proteolytic subunit (Bacillus subtilis (strain 168)), P80244; purified B. subtilis ClpP, FRET peptide cleavage, 20 min; Potency, µM (doses to about 57.5 µM), for the others: at the top dose activity change, negative = active; 1.9% of 340,000 active; AID 651965, 2013; active = well fitted falling curve with a large enough effect; inconclusive = small, poorly fitted or top-dose-only effect; inactive = no such curve, though single readings can be large or run the other way; also: potency is read from the fitted curve at half-maximal effect; the source files actives as falling curves though it sought activators and does not explain the sign; nearly all actives have a fitted effect of over 65% in size; many hits overshoot -100%
# Target sequence (P80244 whole entry, looked up): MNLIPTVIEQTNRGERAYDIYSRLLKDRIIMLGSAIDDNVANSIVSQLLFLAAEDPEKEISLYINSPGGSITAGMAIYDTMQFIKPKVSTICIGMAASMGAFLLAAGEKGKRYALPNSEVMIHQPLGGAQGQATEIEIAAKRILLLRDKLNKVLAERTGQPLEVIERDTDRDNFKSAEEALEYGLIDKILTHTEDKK
#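 FRET quenching reversal measured ClpP activation: 10 microg/mL B. subtilis ClpP at pH 8 with the FRET-FV decapeptide, read at 430 nm after 320 nm excitation. The 20-min minus 0-min signal was scaled between DMSO/no-enzyme wells and ADEP (5.8 microM final).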
# Menin-MLL FL inh: inhibitors of human menin-MLL interaction, wild-type MLL peptide; 290,000 tested, under 10 active; Fluorescence polarization, fluorescein-MLL peptide displacement from menin; FP activity change, % at 61.4 µM; inconclusive = falling polarisation curve, or a change in total fluorescence; inactive = total fluorescence flat and polarisation flat or rising; no compound was filed as active; the % refers to the polarisation; negative = inhibition;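 also: % of control where 0% means no effect; inhibitors lower the polarisation; unlabelled MLL peptide was the positive control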
# gsp agonist: activates gsp, the McCune-Albright syndrome mutation; gsp mutant cells, cAMP HTRF, 30 min; control for the full effect not named in the record; Potency, µM (doses to about 76.9 µM), for the others: at the highest dose activation (cAMP increase), usual class: activators; AID 624287; 0.13% of 340,000 active; active = well fitted activation curve with a large enough effect; inconclusive = small, poorly fitted or top-dose-only effect, or another doubt; inactive = no such curve, though single readings can be large or run the other way; cell line not stated here;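 also: phosphodiesterase inhibitor Ro 20-1724 added with compounds to block cAMP breakdown; potency is read from the fitted curve at half-maximal effect; nearly all actives have a fitted effect of over 60% in size; about a fifth of the inactives were tested at one dose only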
#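 Cells stably selected in G418 were plated at 2000/well, grown 16-24 hr, then given compounds in DMSO with the PDE inhibitor […] (300 uM solution added) for 30 min at 37C; cAMP was read by HTRF.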
# * hit, by the source's call; ? = inconclusive; . = not tested or not shown; & = joins results of further samples; [ ] = remark or other dose.
Molecule	TRPML1 ag	gsp antag	TRPML1 inh	ClpP mod	Menin-MLL FL inh	gsp agonist
CCOC(=O)c1ccccc1NC(=O)Cc1c(C(=O)O)c(C)cn1C	1.5	.	5	0.0%	.	.
O=C(COC(=O)Cc1ccc(F)cc1)NC1CCCCC1	1.5	2%	-2	-0.6%	.	-11%
CCC(C)c1ccc(S(=O)(=O)Nc2cccnc2)cc1 (configuration not stated)	1.3	-13%	-4	0.3%	1.8	23%
CC(=NNC(=S)N1CCCCC1)c1cccc(C)n1	1.4	7%	-12	25µM*	.	-21%
Cc1cc(C)c(NC(=S)N(CCN2CCCCC2)Cc2ccco2)c(C)c1	0.3	5%	-4	.	0.9	1%[15.4 µM]
Cc1ccc(Cn2cnc3nc4c(cc3c2=O)CC(C)CC4)cc1 (configuration not stated)	1.2	.	9	-3.8%	.	.
CCOC(=O)c1c(NC(=O)C(C)Sc2nnc(C)c(=O)[nH]2)sc2c1CCCC2 (configuration not stated)	-0.5	?	15	.	2.8	-3%[15.4 µM]
O=c1c2c(-c3cccs3)csc2ncn1/N=C/c1ccc(OC(F)F)cc1	0.0	-11%	3	-25%	7.3	15%
COc1ccc(C)c2sc(=NC(=O)c3cccc(N4C(=O)CCC4=O)c3)n(C)c12	-0.4	-5%	6	-9.5%	-1.7	4%
CCOC(=O)c1c(NC(C)=O)sc2c(O)c(Br)cc(Br)c12	1.3	1%	7	0.5%	.	3%
CCOc1ccc(CCNC(=O)COC(=O)C2CCN(S(=O)(=O)c3ccccc3)CC2)cc1OCC	0.4	-10%	-2	-0.4%	.	-34%[inhibitor]
COc1ccc(NC(=O)CSC2=Nc3ccccc3C3=NC(CCC(=O)NCc4cccs4)C(=O)N23)cc1 (configuration not stated)	2.0	.	16	-3.8%	.	.
Cc1ccccc1CC(=O)Nc1ccc(S(=O)(=O)N2CCOCC2)cc1	-0.6	-10%	0	0.1%	-3.4	-11%
CCOc1ccc(NS(=O)(=O)c2ccc(OCC(=O)NCc3ccncc3)cc2)cc1	-0.1	8%	9	-4.5%	.	?
O=C(NN=C1CCCCCC1)c1cccs1	0.8	9%	7	-0.4%	-4.2	-3%
CN(NC(=S)Nc1ccc(OC(F)F)cc1)C(=S)Nc1ccc(OC(F)F)cc1	3.8	1%	-4	.	8.3	-4%[15.4 µM]
COCCNC(=S)N/N=C(\C)c1ccc(Cl)s1	1.3	2%	28	.	-1.5	28%[15.4 µM]
CCCCN(C(=O)C1CC(=O)N(c2ccc3c(c2)OCCO3)C1)c1c(N)n(CCCC)c(=O)[nH]c1=O (configuration not stated)	-0.9	7%	20	-2.4%	.	3%
COC(=O)C1=NN(C(=O)c2ccc(Cl)cc2)C(O)(c2ccccc2)C1 (configuration not stated)	7.0	-1%	0	-1.5%	13	-34%[inhibitor]
Cc1ccc(-c2csnn2)cc1	-1.0	3%	-1	0.5%	5.1	-8%
CCN(CC)C(=O)C1=C(C)N(Cc2ccc(OC)cc2)C(=O)C(CC(=O)NC2CCCCC2)C1 (configuration not stated)	-0.7	.	-20	-0.1%	.	-65%[inhibitor]
O=[N+]([O-])c1cc(-c2nnc(C34CC5CC(CC(C5)C3)C4)o2)cc([N+](=O)[O-])c1	-0.1	-8%	65	0.8%	0.0	-37%
Cc1ccc(Cl)c(Nc2ccccc2C(=O)O)c1Cl	2.2&1.9	-18%&-16%	4&5	-0.6%&0.4%	2.4	.
CCCN(CCC)Cc1c(C(=O)N/N=C/c2ccc(C)o2)nnn1-c1nonc1N	-0.3	-4%	29	.	1.0	-9%[15.4 µM]
CN1CCN(C(=O)CNC(=O)C23CC4CC(CC(C4)C2)C3)CC1	3.8	10%	5	-0.6%	.	-7%
Cc1ccc(Cl)c(OCC(=O)Nc2ccccc2N2CCCCC2)c1	1.2	-7%	-11	-12%	.	3%
COc1cc2nc(/C=C/c3cc(OC)c(OC)c(OC)c3)sc2cc1SC	1.9	5%	2	-23%	3.5	24%
COc1ccc(Cl)cc1NC(=O)CCn1c(=O)oc2ccccc21	1.3&-0.8	-6%	4&6	-2.4%	.	4%[15.4 µM]
CCC(=O)N1CCc2cc(S(=O)(=O)NCCC(=O)NCc3ccccc3OC)ccc21	-0.2	-10%	-16	.	.	3%
O=C(Nc1cccc(NC(=O)C2CC3CCCC(C2)C3=O)n1)C1CC2CCCC(C1)C2=O (configuration not stated)	0.3	-4%[15.4 µM]	-9	-5.3%	3.1	0%
CCOc1ccccc1NC(=O)CCNS(=O)(=O)c1ccc2c(c1)CCN2C(=O)C1CC1	-0.1	.	-3	-5.2%	.	.
O=C(O)c1cc(=O)c2c(Cl)cc(Cl)cc2[nH]1	-0.3	8%	10	-0.7%	?	.
COc1ccc(N2C(S)=C(C#N)C(=O)NC2c2ccc(OC)c(OC)c2)cc1 (configuration not stated)	-0.5	-3%	-3	.	2.1	17%
O=C(CCC(=O)c1cccs1)NCc1ccc(Cl)cc1	-0.7	-4%	31	1.4%	3.4	7%
COc1ccc(OC)c(S(=O)(=O)N(C)CC(=O)N2CCCCC2)c1	0.7	12%	5	0.1%	0.3	-1%
COc1ccc(C(=S)N2CCCC2)cc1Br	-0.5	9%	-18	-0.9%	-4.0	-1%[15.4 µM]
N#Cc1cnn(-c2nc3sc4c(c3c(=O)[nH]2)CCCC4)c1N	-0.2	-6%	42	-7.2%	2.3	?
N#Cc1ccccc1NS(=O)(=O)c1ccc(N2CCCCS2(=O)=O)cc1	-0.2	.	-8	-1.7%	.	.
CC(C)N(C(=O)COC(=O)c1cccc(S(=O)(=O)N2CC3(C)CC2CC(C)(C)C3)c1)C(C)C (configuration not stated)	-0.1	-25%	37	-3.0%	.	4%
CCCCN(C)CCNC(=O)c1nn(-c2ccc(OC)cc2)c(=O)c2c1c1ccccc1n2C	0.1&1.2	11%	27&5	-6.0%	-4.6	2%
COc1cc(Br)cc(/C=N/NC(=O)Cc2ccc(C(F)(F)F)cc2[N+](=O)[O-])c1O	-0.5	0%	59	0.9%	5.2	10%[15.4 µM]
Cc1cc(N/N=C/c2ccc(O)cc2)nc(NS(=O)(=O)c2ccccc2)n1	1.1	8%	-8	-18%	-1.2	-3%
COc1ccc(CN2CCN(C(=O)CC(C)C)CC2)cc1Br	0.9	8%	12	-2.6%	6.7	20%
COc1ccc(C(c2sc3nc(C)nn3c2O)N2CCN(CCO)CC2)cc1OC (configuration not stated)	0.2	9%	1	-3.1%	1.5	-1%
Cc1oc2ccc(O)c(CN3CCCCC3C)c2c1C(=O)Nc1ccccc1 (configuration not stated)	-1.1	.	-13	-1.3%	.	.
Cc1ccc(-n2nnnc2CNC(=O)c2ccccc2)cc1C	0.1	.	1	1.7%	.	.
CC1(C)Cc2c(sc(NC(=O)C(=O)N3CCOCC3)c2C#N)CO1	-0.2	-4%	18	-0.5%	.	?
CSCCC(NC(=O)c1ccc(Cl)cc1Cl)C(=O)NCc1ccccn1 (configuration not stated)	-0.5	7%	-2	0.7%	.	0%[15.4 µM]
CC(Oc1ccc2c(-c3ccccc3)cc(=O)oc2c1)C(=O)NCCCn1ccnc1 (configuration not stated)	.	-9%	.	-6.0%	-6.4	.
COc1ccc2c(c1)CC(C(=O)Nc1c(C)cc(C)cc1C)CO2 (configuration not stated)	-0.1	.	-7	-3.7%	.	.

# Next part:
Molecule	TRPML1 ag	gsp antag	TRPML1 inh	ClpP mod	Menin-MLL FL inh	gsp agonist
COc1cc(CC(NC(C)=O)C(=O)NC2CCN(c3nc(C)cc(C)c3C#N)CC2)cc(OC)c1 (configuration not stated)	1.5	14%	8	?	1.8	-18%
CC(C)(C)OC(=O)N1Cc2ccccc2C[C@H]1C(=O)NCC(=O)Nc1ccc2c(c1)OCCO2	-0.6	-4%	-2	2.1%	5.0	-9%
COc1ccc(C2CCCCC2SCC(=O)O)cc1OC (configuration not stated)	0.4	.	-10	0.9%	.	-11%
CN(C[C@H](CC1CCCCC1)N(C[C@H](Cc1ccccc1)N(CCc1ccccc1)N=O)N=O)N=O	0.4	-5%	-18	-0.4%	-0.3	3%
CCOC(=O)CCNC(=O)N1CCCC(CNS(=O)(=O)Cc2ccccc2)C1 (configuration not stated)	0.4	-18%	34	.	0.2	17%[15.4 µM]
CC(C)OC(=O)/C(=C/c1ccc(Br)cc1)NC(=O)c1ccco1	1.8	-5%	18	-2.6%	3.2	-4%
COc1ccc(-c2[nH]ncc2C(=O)NCc2cccc(F)c2)cc1	0.6	.	-12	-2.1%	.	.
Cc1ccc2nc3c(cc(S(=O)(=O)c4ccccc4)c(=N)n3C3CCCC3)c(=O)n2c1	1.3	-8%	52	.	.	-7%[15.4 µM]
CCOC(=O)N1CCC(NC(=O)c2ccc(CS(=O)(=O)c3ccccc3C)o2)CC1	1.2	5%	25	-2.7%	4.6	-94%[inhibitor]
Cc1ccc(S(=O)(=O)N2CCN(C(=O)N(c3ccccc3)c3ccccc3)CC2)cc1	2.3	-30%	20	-1.5%	-0.9	-3%
COc1ccccc1CNC(=O)COC(=O)CSc1ccc(F)cc1	0.1	7%	-4	?	.	-11%
CCc1cccc(NC(=O)CS(=O)Cc2nc(-c3ccc(C)cc3)oc2C)c1 (configuration not stated)	-0.1	-12%	1	-3.2%	2.5	-143%
CCn1c(=O)n(CC)c2cc(S(=O)(=O)Nc3c(C)cccc3C)ccc21	0.0	-4%	18	-3.8%	1.5	-9%

# Part of the list above, with values under each structure.
# Sequence of screens: TRPML1 ag	gsp antag	TRPML1 inh	ClpP mod	Menin-MLL FL inh	gsp agonist
> COc1cc(CC(NC(C)=O)C(=O)NC2CCN(c3nc(C)cc(C)c3C#N)CC2)cc(OC)c1 (configuration not stated)
    1.5	14%	8	?	1.8	-18%
> CC(C)OC(=O)/C(=C/c1ccc(Br)cc1)NC(=O)c1ccco1
    1.8	-5%	18	-2.6%	3.2	-4%
> Cc1ccc(S(=O)(=O)N2CCN(C(=O)N(c3ccccc3)c3ccccc3)CC2)cc1
    2.3	-30%	20	-1.5%	-0.9	-3%
> CCn1c(=O)n(CC)c2cc(S(=O)(=O)Nc3c(C)cccc3C)ccc21
    0.0	-4%	18	-3.8%	1.5	-9%
> CCOC(=O)N1CCC(NC(=O)c2ccc(CS(=O)(=O)c3ccccc3C)o2)CC1
    1.2	5%	25	-2.7%	4.6	-94%[inhibitor]
> CCc1cccc(NC(=O)CS(=O)Cc2nc(-c3ccc(C)cc3)oc2C)c1 (configuration not stated)
    -0.1	-12%	1	-3.2%	2.5	-143%

# Source: PubChem BioAssay (National Center for Advancing Translational Sciences (NCATS))
